# UUG fidelity: yeast start codon fidelity modulation | S. cerevisiae UUG-firefly luciferase reporter, luminescence/redox ratio | activity score, % at 18.7 µM | 350,000 tested, 0.13% active;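 active means replicate mean at a twofold rise or more, about +100% in these data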;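 further: firefly luciferase made from a UUG start codon reports start codon fidelity; reporter light over untreated wells divided by growth signal over untreated wells; some hits fall short of that in this replicate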
# Starred values were filed as active, the others as inactive.
UUG fidelity	structure
11	C[C@@H]1CN([C@@H](C)CO)C(=O)c2cccc(N(C)C)c2O[C@H]1CN(C)S(=O)(=O)c1ccc(F)cc1
-2	C[C@H]1CN([C@@H](C)CO)C(=O)Cc2cc(NS(C)(=O)=O)ccc2O[C@H]1CN(C)C(=O)Nc1ccc(F)cc1
-14	CC(C)NC(=O)Nc1ccc2c(c1)C(=O)N([C@@H](C)CO)C[C@@H](C)[C@H](CN(C)S(=O)(=O)c1ccccc1)O2
-3	O=C(Nc1cccc(F)c1)N1CCCCN2[C@H](C1)[C@@H](c1ccc(C#Cc3cccnc3)cc1)[C@@H]2CO
32	COc1ccc(S(=O)(=O)N(C)C[C@H]2Oc3ccc(NC(=O)CCC(F)(F)F)cc3CC(=O)N([C@H](C)CO)C[C@@H]2C)cc1
11	C[C@@H]1CN([C@H](C)CO)C(=O)CCCn2nncc2CO[C@@H]1CN(C)CC1CC1
-10	OC[C@@H]1Nc2ccc(C#Cc3ccc(F)cc3)cc2[C@H]2[C@@H]1CCN2Cc1ccc2c(c1)OCO2
-7	COCC(=O)Nc1ccc2c(c1)C(=O)N(C)C[C@@H](OC)[C@H](C)CN(C(=O)c1ccncc1)[C@H](C)CO2
-15	O=C(c1ccc(F)cc1)N1CC[C@@H]2[C@H]1c1cc(C#Cc3ccccc3F)ccc1N[C@@H]2CO
5	Cc1ccccc1-c1ccc([C@@H]2[C@H](CO)N3CCCCN(S(=O)(=O)Cc4ccccc4)C[C@@H]23)cc1

# Single values from the results shown:
# UUG fidelity result of C[C@@H]1CN([C@@H](C)CO)C(=O)c2cccc(N(C)C)c2O[C@H]1CN(C)S(=O)(=O)c1ccc(F)cc1 is entered as 11
# UUG fidelity result of Cc1ccccc1-c1ccc([C@@H]2[C@H](CO)N3CCCCN(S(=O)(=O)Cc4ccccc4)C[C@@H]23)cc1 is entered as 5

# Next part
UUG fidelity	structure
11	C[C@@H]1CN([C@@H](C)CO)C(=O)c2cc(NS(C)(=O)=O)ccc2O[C@@H]1CN(C)S(=O)(=O)c1cccs1
-8	CC(=O)N1[C@H](CO)[C@@H](c2ccccc2)[C@H]1CN(C)C(=O)CN1CCOCC1
-4	COC(=O)C[C@@H]1CC[C@H]2[C@@H](COc3ccc(NC(=O)c4cscn4)cc3C(=O)N2C)O1
-1	CC(=O)NC[C@@H]1[C@@H](c2ccccc2)[C@@H](CO)N1C(=O)Cc1cccnc1
-6	CC(C)NC(=O)N(C)C[C@H]1Oc2c(NC(=O)Nc3ccccc3)cccc2C(=O)N([C@@H](C)CO)C[C@H]1C
-4	Cc1ccc(S(=O)(=O)N2C[C@H](O)COC[C@@H]3O[C@H](CC(=O)NCCN4CCCCC4)CC[C@H]32)cc1
-9	CO[C@@H]1CN(C)C(=O)c2ccc(NC(=O)C3CC3)cc2OC[C@H](C)N(C(=O)CN(C)C)C[C@@H]1C
24	CN(C)C(=O)c1ccc(-c2ccc3c(c2)[C@@H]2[C@@H](CCN2C(=O)c2ccccn2)[C@@H](CO)N3C)cc1
5	CO[C@@H]1CN(C)C(=O)c2ccc(NC(=O)C3CC3)cc2OC[C@@H](C)N(Cc2ccccc2C(=O)O)C[C@H]1C
11	C[C@H]1CN([C@@H](C)CO)C(=O)c2cccc(NC(=O)C3CCCCC3)c2O[C@@H]1CN(C)S(=O)(=O)c1ccccc1
-1	CS(=O)(=O)Nc1ccc2c(c1)[C@H]1C[C@H](CC(=O)NCc3ccccc3F)O[C@H](CO)[C@H]1O2
-18	CCC(=O)N1[C@H](CO)[C@H]2c3ccccc3N(C(=O)c3cccc(OC)c3)C[C@H]21
6	CN1c2ccc(C3=CCCCC3)cc2[C@@H]2[C@@H](CCN2C(=O)Cc2ccccn2)[C@H]1CO
11	CO[C@@H]1CN(C)C(=O)c2ccc(NC(=O)Cc3ccccc3)cc2OC[C@@H](C)N(C(C)=O)C[C@@H]1C
-12	COc1ccccc1S(=O)(=O)N1CC[C@@H]2[C@H](CO)Nc3ccc(-c4ccc(F)cc4)cc3[C@@H]21
-1	COCC(=O)N1[C@@H](CO)[C@@H]2c3ccccc3N(C(=O)C3CC3)C[C@@H]21
9	COc1ccc(CN2[C@H](CO)[C@H]3c4ccccc4NC[C@H]32)cc1
3	COc1ccccc1-c1ccc2c(c1)[C@H]1[C@H](CCN1C(=O)C1CCOCC1)[C@@H](CO)N2
1	CCCNC(=O)C[C@H]1CC[C@@H]2[C@H](COC[C@H](O)CN2C(=O)Nc2ccc3c(c2)OCO3)O1
10	COCC(=O)NC[C@H]1[C@H](c2ccc(C3=CCCC3)cc2)[C@@H](CO)N1C(C)=O
5	CC(C)NC(=O)N1[C@@H]2CN(C(=O)C3CCC3)c3ccccc3[C@@H]2[C@@H]1CO
-16	CN1CCN(C(=O)C[C@@H]2CC[C@H]3[C@@H](COC[C@H](O)CN3Cc3cccc(-c4ccncc4)c3)O2)CC1
-34	CN1c2ccc(-c3ccccc3)cc2[C@@H]2[C@@H](CCN2C(=O)c2ccc(F)cc2)[C@@H]1CO
23	Cc1ccc(S(=O)(=O)N2C[C@H](O)COC[C@H]3O[C@H](CC(=O)N[C@H]4CCN(Cc5ccccc5)C4)CC[C@@H]32)cc1
-6	Cc1noc(C)c1NC(=O)Nc1ccc2c(c1)C(=O)N([C@@H](C)CO)C[C@H](C)[C@H](CN(C)Cc1ccc(Oc3ccccc3)cc1)O2
-1	COc1ccc(CN2[C@@H]3CN(C(=O)C4CC4)c4ccccc4[C@@H]3[C@@H]2CO)cc1
-3	CC=Cc1ccc2n(c1=O)C[C@@H]1[C@@H](CO)[C@H](C(=O)NCCC)N(CC3CC3)[C@H]21 (mixture of isomers)
2	O=C(c1ccncc1)N1C[C@H]2[C@@H](c3ccccc31)[C@@H](CO)N2Cc1ccccc1F
3	CCCNC(=O)N1C[C@@H](C)[C@@H](OC)CN(C)C(=O)c2ccc(NC(=O)CCC)cc2OC[C@H]1C
-10	CO[C@@H]1CN(C)C(=O)c2cc(NC(=O)C3CC3)ccc2OC[C@@H](C)N(Cc2ccccc2)C[C@@H]1C

# Reformatted as tab-separated lines: part of the list above
mol	UUG fidelity
CN1CCN(C(=O)C[C@@H]2CC[C@H]3[C@@H](COC[C@H](O)CN3Cc3cccc(-c4ccncc4)c3)O2)CC1	-16
CN1c2ccc(-c3ccccc3)cc2[C@@H]2[C@@H](CCN2C(=O)c2ccc(F)cc2)[C@@H]1CO	-34
Cc1ccc(S(=O)(=O)N2C[C@H](O)COC[C@H]3O[C@H](CC(=O)N[C@H]4CCN(Cc5ccccc5)C4)CC[C@@H]32)cc1	23
Cc1noc(C)c1NC(=O)Nc1ccc2c(c1)C(=O)N([C@@H](C)CO)C[C@H](C)[C@H](CN(C)Cc1ccc(Oc3ccccc3)cc1)O2	-6
COc1ccc(CN2[C@@H]3CN(C(=O)C4CC4)c4ccccc4[C@@H]3[C@@H]2CO)cc1	-1
CC=Cc1ccc2n(c1=O)C[C@@H]1[C@@H](CO)[C@H](C(=O)NCCC)N(CC3CC3)[C@H]21 (mixture of isomers)	-3

# Further entries.
UUG fidelity	structure
-5	CC(C)NC(=O)N(C)C[C@@H]1Oc2ccc(NC(=O)Nc3ccccc3)cc2CC(=O)N([C@@H](C)CO)C[C@@H]1C
6	Cc1noc(C)c1NC(=O)N(C)C[C@@H]1Oc2c(NS(=O)(=O)c3cccs3)cccc2C(=O)N([C@@H](C)CO)C[C@H]1C
16	CC=Cc1ccc2n(c1=O)C[C@@H]1[C@@H](CO)[C@H](C(=O)NCC)N(C(=O)C3CCOCC3)[C@H]21 (mixture of isomers)
13	COc1cccc(-c2ccc([C@H]3[C@H]4CN(C(=O)c5ccc(F)cc5)CCCCN4[C@H]3CO)cc2)c1
18	COc1ccccc1CNC(=O)C[C@H]1CC[C@H]2[C@@H](COC[C@@H](O)CN2C(=O)Nc2ccc(Cl)cc2)O1
1	C[C@@H]1CN([C@@H](C)CO)C(=O)c2cccc(NC(=O)C3CCCCC3)c2O[C@@H]1CN(C)C(=O)Nc1ccc(F)cc1
4	CN(C)C(=O)[C@@H]1[C@@H](CO)[C@@H]2Cn3c(ccc(C4=CCCC4)c3=O)[C@H]1N2CC1CCCCC1
9	O=C(Nc1ccccc1)N1C[C@H]2[C@@H](c3ccccc31)[C@H](CO)N2Cc1ccccc1Cl
17	CNC[C@H]1Oc2ccc(NS(=O)(=O)c3ccc(Cl)cc3)cc2CC(=O)N([C@H](C)CO)C[C@@H]1C
15	O=C(C1CCCC1)N1[C@H](CO)[C@@H]2c3ccccc3N(S(=O)(=O)c3ccc(F)cc3)C[C@@H]21

# Laid out differently: 4 of the compounds above
Compound: CC=Cc1ccc2n(c1=O)C[C@@H]1[C@@H](CO)[C@H](C(=O)NCC)N(C(=O)C3CCOCC3)[C@H]21 (mixture of isomers)
  UUG fidelity: 16

Compound: COc1cccc(-c2ccc([C@H]3[C@H]4CN(C(=O)c5ccc(F)cc5)CCCCN4[C@H]3CO)cc2)c1
  UUG fidelity: 13

Compound: COc1ccccc1CNC(=O)C[C@H]1CC[C@H]2[C@@H](COC[C@@H](O)CN2C(=O)Nc2ccc(Cl)cc2)O1
  UUG fidelity: 18

Compound: C[C@@H]1CN([C@@H](C)CO)C(=O)c2cccc(NC(=O)C3CCCCC3)c2O[C@@H]1CN(C)C(=O)Nc1ccc(F)cc1
  UUG fidelity: 1

# New compounds follow:
UUG fidelity	structure
7	CCN1[C@@H]2c3ccc(-c4ccccc4)c(=O)n3C[C@@H]2[C@@H](CO)[C@@H]1C(=O)Nc1ccccc1
-18	CO[C@@H]1CN(C)C(=O)c2cc(NC(=O)C3CCC3)ccc2OC[C@@H](C)NC[C@H]1C
3	CCC(=O)N1CCCCN2[C@H](C1)[C@@H](c1ccc(C#Cc3ccccc3F)cc1)[C@@H]2CO
13	C[C@@H]1CN([C@H](C)CO)C(=O)c2cc(NC(=O)Nc3ccc(C(F)(F)F)cc3)ccc2O[C@H]1CN(C)Cc1ccc(C(=O)O)cc1
-8	C[C@@H]1CN([C@H](C)CO)C(=O)c2cccc(NC(=O)C3CC3)c2O[C@@H]1CN(C)CC1CC1
-5	CO[C@H]1CN(C)C(=O)c2cc(NC(C)=O)ccc2OC[C@@H](C)N(C(=O)C2CCC2)C[C@@H]1C
-13	CN1c2ccc(Br)cc2[C@H]2[C@H](CCN2C(=O)c2ccc(F)cc2)[C@H]1CO
-1	COc1ccc(CN2C[C@H](O)COC[C@H]3O[C@H](CC(=O)NCc4ccncn4)CC[C@@H]32)cc1
8	N#Cc1cccc(-c2ccc3c(c2)[C@H]2[C@H](CCN2Cc2ccc4c(c2)OCO4)[C@@H](CO)N3)c1
13	CC(C)C#Cc1ccc([C@H]2[C@H](CO)N3CCCCN(C(=O)c4ccc5c(c4)OCO5)C[C@@H]23)cc1
31	O=C(CC(F)(F)F)N1C[C@H]2[C@@H](c3ccccc31)[C@H](CO)N2C(=O)c1cccnc1
16	CC(C)CC#Cc1ccc2c(c1)O[C@H](CN(C)Cc1ccccc1F)[C@H](C)CN([C@H](C)CO)S2(=O)=O
-19	COCC(=O)Nc1ccc2c(c1)C(=O)N(C)C[C@@H](OC)[C@@H](C)CN(Cc1cncnc1)[C@@H](C)CO2
6	CC(C)NC(=O)N1CC[C@@H]2[C@@H](CO)N(C)c3ccc(-c4ccc(F)cc4)cc3[C@@H]21
-14	Cc1ccccc1S(=O)(=O)N1CC[C@@H]2[C@@H](CO)N(C)c3ccc(Br)cc3[C@@H]21
-10	CN(C)C(=O)[C@H]1[C@H](CO)[C@H]2Cn3c(cccc3=O)[C@H]2N1C(=O)C1CCCCC1
2	CS(=O)(=O)Nc1ccc2c(c1)[C@H]1C[C@@H](CC(=O)NCc3ccc(-c4ccccc4)cc3)O[C@H](CO)[C@H]1O2
12	Cn1cnc(S(=O)(=O)N2CCCCN3[C@H](CO)[C@@H](c4ccc(-c5ccccc5)cc4)[C@@H]3C2)c1
5	COC(=O)C[C@@H]1CC[C@H]2[C@H](COc3ccc(NC(=O)c4ccc(C(F)(F)F)cc4)cc3C(=O)N2C)O1
-4	N#Cc1ccc(-c2ccc3c(c2)[C@H]2[C@H](CCN2C(=O)c2ccncc2)[C@H](CO)N3)cc1
-2	COc1ccc(NC(=O)N(C)C[C@H]2Oc3ccc(NS(=O)(=O)c4cccs4)cc3C(=O)N([C@H](C)CO)C[C@H]2C)cc1
8	CO[C@H]1CN(C)C(=O)c2cc(NS(=O)(=O)CC(F)(F)F)ccc2OC[C@H](C)N(C(=O)c2ccc3c(c2)OCO3)C[C@H]1C
-6	C[C@H](CO)N1C[C@H](C)[C@H](CN(C)S(=O)(=O)c2ccc(F)cc2)Oc2ccc(NC(=O)CCCN(C)C)cc2C1=O
-12	CCCC(=O)Nc1ccc2c(c1)OC[C@@H](C)N(Cc1cncnc1)C[C@H](C)[C@@H](OC)CN(C)C2=O
2	CCC(=O)N1CC[C@H]2[C@@H]1c1cc(-c3ccc(C#N)cc3)ccc1N(C)[C@H]2CO
-25	CN1c2ccc(-c3ccccc3)cc2[C@H]2[C@H](CCN2C(=O)c2cccc(F)c2)[C@H]1CO
4	CC(=O)Nc1ccc2c(c1)C(=O)N(C)[C@H]1CC[C@H](CC(=O)NCc3ccc(Cl)cc3)O[C@H]1CO2
23	COc1cccc(C(=O)Nc2ccc3c(c2)C(=O)N(C)C[C@@H](OC)[C@H](C)CN(C(=O)C2CCC2)[C@H](C)CO3)c1
10	C[C@H]1CN([C@@H](C)CO)C(=O)c2cc(NC(=O)Nc3ccc(F)cc3)ccc2O[C@@H]1CN(C)Cc1ccc2c(c1)OCO2
14	O=C(c1cccc(F)c1)N1CCCCN2[C@@H](CO)[C@H](c3ccc(C#CC4(O)CCCC4)cc3)[C@@H]2C1
-7	CC(C)(O)C#Cc1ccc([C@H]2[C@@H](CO)N3CCCCN(C(=O)c4cccnc4)C[C@@H]23)cc1
3	CC(C)NC(=O)N1CCCCN2[C@H](CO)[C@@H](c3ccc(Br)cc3)[C@@H]2C1
-2	CCCNC(=O)C[C@H]1CC[C@H]2[C@@H](COC[C@@H](O)CN2C(=O)c2cc(Cl)cc(Cl)c2)O1
-3	C[C@@H]1CN([C@@H](C)CO)C(=O)c2cc(NC(=O)Cc3cn(C)c4ccccc34)ccc2O[C@H]1CN(C)C(=O)Nc1ccc2c(c1)OCO2
-10	CC(C)C#Cc1ccc([C@@H]2[C@@H](CO)N3CCCCN(S(=O)(=O)Cc4ccccc4)C[C@H]23)cc1
3	CCNC(=O)C[C@H]1CC[C@H]2[C@@H](COC[C@@H](O)CN2Cc2ccc(Cl)c(Cl)c2)O1

# Assay outcomes: PubChem BioAssay, Broad Institute

# This is a subset (hit frequency here may not be typical).
